total CFTR = total CFTR protein upregulators, primary screen, cell-based, HeLa F508del-CFTR, immunofluorescence, viability (AID 1224863); HeLa F508del-CFTR, immunofluorescence total CFTR, 24 h; by the record results were divided by relative cell number; some inactives read as strong as hits; calls, or highest fold increase where a dose series was run; 10,000 compounds, 0.1% hits; in the data nearly all actives have a first-pass fold increase above 1.5; a few of its hits are not listed in these tables;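 also: total CFTR protein by anti-CFTR immunofluorescence in fixed cells; first pass at 25 µM or 10 µg/mL by library and series up to twice that; 1 = untreated cells; first-pass hits also needed half or more of the cells alive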
total CFTR fold 25 µM = also measured in total CFTR; calls as there; fold increase; measured here: primary screen single dose 25 uM; library dosed in µM
total CFTR fold 10 ug/mL = further read-out of total CFTR, marked with its call; fold increase; measured here: primary screen 10 ug/mL
total CFTR viability 25 µM = second read-out of total CFTR, no call of its own (marks repeat the call); viability, %; measured here: primary viability 25 uM; library dosed in µM;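 0% = killed and 100% = untreated cells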
total CFTR viability 10 ug/mL = recorded beside total CFTR, whose call it bears; viability, %; measured here: primary viability 10 ug/mL;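 0% = killed and 100% = untreated cells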
Active calls of the source: *; i = inactive; . = no result given; & = joins results of further samples. Not all compounds are listed (hit frequency here may not be typical).

Results follow in this order: total CFTR | total CFTR fold 25 µM | total CFTR fold 10 ug/mL | total CFTR viability 25 µM | total CFTR viability 10 ug/mL
CC1(C)O[C@@H]2C[C@H]3[C@@H]4CCC5=CC(=O)C=C[C@]5(C)[C@@]4(F)[C@@H](O)C[C@]3(C)[C@]2(C(=O)CO)O1
→ i | 0.99 | . | 93 | .
CCN(CC(=O)NC)S(=O)(=O)N(C)C
→ i | . | 0.94 | . | 81
CONC(=O)COCc1nc2ccccc2s1
→ i | . | 1.1 | . | 90
O=C(O)c1cc(O)c(O)c(O)c1
→ i | 0.99 | . | 104 | .
O=S(=O)(NCC(c1ccccc1)c1ccccc1)c1ccc2c(c1)OCCO2
→ i | . | 0.94 | . | 89
OCCSc1nc(CN2CCCCC2)nc2sc3c(c12)CCC3
→ i | . | 0.94 | . | 98
C=CCn1cnn(CN2CCCC(c3nc4ccccc4s3)C2)c1=S (centres undefined)
→ i | . | 1.1 | . | 97
CN1C(=S)N(C)C(O)(C(F)(F)F)C(C(=O)c2ccccc2)C1c1ccccc1 (centres undefined)
→ i | . | 1 | . | 95
CNC(C)[C@@H]1CC[C@@H](N)[C@@H](OC2[C@@H](N)C[C@@H](N)[C@H](OC3OC[C@](C)(O)[C@H](NC)[C@H]3O)[C@H]2O)O1 (some centres undefined)
→ i | 1.1 | . | 106 | .
Cc1c(C(N)=O)cc([N+](=O)[O-])cc1[N+](=O)[O-]
→ i | 1.1 | . | 87 | .
CCN(CC)C(C)CN1c2ccccc2Sc2ccccc21 (centres undefined)
→ i | 0.94 | . | 89 | .
COC1=C(OC)C(=O)C(CCCCCCCCCCO)=C(C)C1=O
→ i | 0.63&0.61 | . | 3&3 | .
CN(Cc1ccc(N2CCOCC2)cc1)Cc1cc(Cl)c2c(c1)OCCO2
→ i | . | 1 | . | 86
COCCN1C(=O)NC(c2cc(Br)cs2)C(C(=O)OC)=C1C (centres undefined)
→ i | . | 1 | . | 99
COC(=O)c1cc(C#N)c(=O)n(Cc2cn3ccccc3c2C#N)c1
→ i | . | 1 | . | 102
CC(C)n1ncc2cc(NS(=O)(=O)c3ccc4c(c3)OCCO4)cnc21
→ i | . | 0.92 | . | 86
CN(CC(=O)NC(C)(C)C)C(=O)Cn1ncc(Cl)c(Cl)c1=O
→ i | . | 1.1 | . | 85
O=C1CCSc2ccc(C(=O)OCc3cccc(F)c3F)cc2N1
→ i | . | 0.9 | . | 90
O=S(=O)(NC1CCN(C2CC2)CC1)c1ccccc1C(F)(F)F
→ i | . | 0.99 | . | 82
C[C@]12CC[C@H](O)CC1=CC[C@@H]1[C@@H]2CC[C@]2(C)C(c3cccnc3)=CC[C@@H]12
→ i | 0.94 | . | 92 | .
Cn1cnnc1C1CCCN(c2ncnc3scc(-c4ccc(F)cc4)c23)C1 (centres undefined)
→ i | . | 0.98 | . | 99
CC(C(=O)O)n1ccnc1 (centres undefined)
→ i | . | 1 | . | 78
Cc1cccc(OCC(O)CN2CC3(C)CC2CC(C)(C)C3)c1 (centres undefined)
→ i | . | 1.1 | . | 104
O=C(NCCCN1CCC(O)CC1)C(=O)NCCCN1CCC(O)CC1
→ i | . | 0.98 | . | 99
COc1ccc(Cc2nccc3cc(OC)c(OC)cc23)cc1OC
→ i | 0.91 | . | 76 | .
COc1ccc(Cl)cc1CN1C(=O)C(=O)N(Cc2ccccc2)C1=O
→ i | . | 1 | . | 92
COc1cc(C(=S)N2CCOCC2)ccc1O
→ i | 1.2 | . | 87 | .
Cc1nc2nc(C(F)(F)F)nn2c(C)c1CC(=O)NC1=NCCS1
→ i | . | 1 | . | 93
CCCn1nnnc1CSc1ncnc2c1cnn2-c1ccccc1
→ i | . | 0.98 | . | 88
O=[N+]([O-])c1cccc(Cn2cnc3ccccc32)c1
→ i | . | 1.1 | . | 91
Cc1nn(CC(C)C)c(C)c1CCC(=O)N1CCN(S(=O)(=O)N(C)C)CC1
→ i | . | 1.1 | . | 101
C=CCNc1nnc(SC(C)C#N)s1 (centres undefined)
→ i | . | 1 | . | 92
Nc1nccnc1C(=O)NCCSC1CCCC1
→ i | . | 0.85 | . | 79
CCOC(=O)c1c(C)[nH]c(C(=O)CN2C(=O)C3CCCCC3C2=O)c1C (centres undefined)
→ i | . | 1 | . | 92
CC(C)NS(=O)(=O)c1ccc(F)c(F)c1
→ i | . | 1.1 | . | 99
COCCN1C(=S)NC(c2ccc(Br)cc2)C(C(=O)OC)=C1C (centres undefined)
→ i | . | 0.99 | . | 113
CCCC1=C(C(=O)OCC)C(c2cccc(Br)c2)NC(=S)N1 (centres undefined)
→ i | . | 0.84 | . | 69
Cc1c(C)c(C)c(S(=O)(=O)NC2CCN(C3CC3)CC2)c(C)c1C
→ i | . | 1 | . | 92
CC(=O)c1cc2c(cc1NC(=O)C1(C)CC1(Cl)Cl)OCO2 (centres undefined)
→ i | . | 0.99 | . | 100
c1ccc(-c2nnc(N3CCN(c4ccccc4)CC3)c3ccccc23)cc1
→ i | . | 1.1 | . | 94
Cc1c(-c2cnccn2)ssc1=S
→ i | 0.97&1 | . | 98&86 | .
CNC(=O)c1cc(Oc2ccc(NC(=O)Nc3ccc(Cl)c(C(F)(F)F)c3)cc2)ccn1
→ i | 0.64 | . | 48 | .
CN(Cc1ccc2c(c1)OCCO2)Cc1cc2c(cc1O)OCO2
→ i | . | 1 | . | 102
COC(=O)c1ccc(OCCN2C(=O)NC3(CCSC3)C2=O)cc1 (centres undefined)
→ i | . | 1.1 | . | 100
COc1ccc2c(-c3ccccc3)cc(SCc3c(C)noc3C)nc2c1
→ i | . | 0.96 | . | 100
O=[N+]([O-])c1ccc(O)c2ncccc12
→ i | 0.91 | . | 80 | .
Cc1cc(C)cc(C2(C(=O)O)CCC2)c1
→ i | . | 0.95 | . | 81
CCOC(=O)/C=C(C)/C=C/C=C(C)/C=C/c1c(C)cc(OC)c(C)c1C
→ i | 1 | . | 97 | .
CS(=O)(=O)c1ccc([C@@H](O)[C@@H](COC(=O)CN)NC(=O)C(Cl)Cl)cc1
→ i | 1 | . | 111 | .
CCOC(=O)N1CCN(CCn2nc3ccccn3c2=O)CC1
→ i | . | 1 | . | 101
CCOC(=O)N1CCC(C(=O)NC(CC)C23CC4CC(CC(C4)C2)C3)CC1 (centres undefined)
→ i | . | 0.99 | . | 100
c1ccc2c(OCc3nnnn3C3CC3)cccc2c1
→ i | . | 0.98 | . | 88
Cc1ccccc1OCCN(C)c1ccc2nnc(C(F)(F)F)n2n1
→ i | . | 0.95 | . | 84
CCOC(=O)CCC(=O)O[C@H]1[C@H](O[C@@H]2[C@@H](C)[C@H](O[C@H]3C[C@@](C)(OC)[C@@H](O)[C@H](C)O3)[C@@H](C)C(=O)O[C@H](CC)[C@@](C)(O)[C@H](O)[C@@H](C)C(=O)[C@H](C)C[C@@]2(C)O)O[C@H](C)C[C@@H]1N(C)C
→ i | 1 | . | 115 | .
CSc1ccc(OCc2cc(=O)n3ccc(C)cc3n2)cc1
→ i | . | 0.98 | . | 112
C#C[C@]1(O)CC[C@H]2[C@@H]3CCC4=CC(=O)CC[C@@H]4[C@H]3CC[C@@]21C
→ i | 0.87 | . | 99 | .

Part of the list above, as tab-separated lines:
SMILES	total CFTR	total CFTR fold 25 µM	total CFTR fold 10 ug/mL	total CFTR viability 25 µM	total CFTR viability 10 ug/mL
CC(=O)c1cc2c(cc1NC(=O)C1(C)CC1(Cl)Cl)OCO2 (centres undefined)	i	.	0.99	.	100
c1ccc(-c2nnc(N3CCN(c4ccccc4)CC3)c3ccccc23)cc1	i	.	1.1	.	94

18 structures out of the list, sorted by length of the SMILES, falling.
Results follow in this order: total CFTR | total CFTR fold 25 µM | total CFTR fold 10 ug/mL | total CFTR viability 25 µM | total CFTR viability 10 ug/mL
CCOC(=O)CCC(=O)O[C@H]1[C@H](O[C@@H]2[C@@H](C)[C@H](O[C@H]3C[C@@](C)(OC)[C@@H](O)[C@H](C)O3)[C@@H](C)C(=O)O[C@H](CC)[C@@](C)(O)[C@H](O)[C@@H](C)C(=O)[C@H](C)C[C@@]2(C)O)O[C@H](C)C[C@@H]1N(C)C
→ i | 1 | . | 115 | .
C#C[C@]1(O)CC[C@H]2[C@@H]3CCC4=CC(=O)CC[C@@H]4[C@H]3CC[C@@]21C
→ i | 0.87 | . | 99 | .
CS(=O)(=O)c1ccc([C@@H](O)[C@@H](COC(=O)CN)NC(=O)C(Cl)Cl)cc1
→ i | 1 | . | 111 | .
CNC(=O)c1cc(Oc2ccc(NC(=O)Nc3ccc(Cl)c(C(F)(F)F)c3)cc2)ccn1
→ i | 0.64 | . | 48 | .
CCOC(=O)/C=C(C)/C=C/C=C(C)/C=C/c1c(C)cc(OC)c(C)c1C
→ i | 1 | . | 97 | .
CCOC(=O)N1CCC(C(=O)NC(CC)C23CC4CC(CC(C4)C2)C3)CC1 (centres undefined)
→ i | . | 0.99 | . | 100
Cc1c(C)c(C)c(S(=O)(=O)NC2CCN(C3CC3)CC2)c(C)c1C
→ i | . | 1 | . | 92
COc1ccc2c(-c3ccccc3)cc(SCc3c(C)noc3C)nc2c1
→ i | . | 0.96 | . | 100
COC(=O)c1ccc(OCCN2C(=O)NC3(CCSC3)C2=O)cc1 (centres undefined)
→ i | . | 1.1 | . | 100
CCCC1=C(C(=O)OCC)C(c2cccc(Br)c2)NC(=S)N1 (centres undefined)
→ i | . | 0.84 | . | 69
Cc1ccccc1OCCN(C)c1ccc2nnc(C(F)(F)F)n2n1
→ i | . | 0.95 | . | 84
CN(Cc1ccc2c(c1)OCCO2)Cc1cc2c(cc1O)OCO2
→ i | . | 1 | . | 102
CCOC(=O)N1CCN(CCn2nc3ccccn3c2=O)CC1
→ i | . | 1 | . | 101
O=[N+]([O-])c1ccc(O)c2ncccc12
→ i | 0.91 | . | 80 | .
Cc1cc(C)cc(C2(C(=O)O)CCC2)c1
→ i | . | 0.95 | . | 81
Nc1nccnc1C(=O)NCCSC1CCCC1
→ i | . | 0.85 | . | 79
C=CCNc1nnc(SC(C)C#N)s1 (centres undefined)
→ i | . | 1 | . | 92
Cc1c(-c2cnccn2)ssc1=S
→ i | 0.97&1 | . | 98&86 | .

Compound activity from PubChem BioAssay.
